AID504770 – E. coli YBA685 growth inhibition, screen for V. cholerae RctB inhibitors. E. coli YBA685 rctB-dependent plasmid, OD600 growth, 3 h; active compounds read low. z-score (no concentration beside the values). actives 0.27% (n = 130,000). AID 504770;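 active = z-score under -2 on both plates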;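 note: wells of about 30 µL received 100 nL stock; score is relative to mean and SD of the test wells; the first replicate is given; strong numbers were not always called active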
CapD inh – CapD enzyme inhibition; purified CapD enzyme, fluorescence intensity read-out; active compounds read low; some hits fall short of the stated cut; z-score (no concentration beside the values); actives 0.23% (n = 140,000);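 active = z-score under -4 in either of two replicates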;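 note: stock transfer was 100 nL into about 40 µL; score is relative to mean and spread of the plate; one replicate is shown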
An asterisk follows results filed as active; . = no result given.

Sample of the layout, 2 compounds:
The line under a structure holds: AID504770 | CapD inh
N#CC1=C(N)Oc2n[nH]c(-c3cccc([N+](=O)[O-])c3)c2C1c1cccc(OC(=O)N2CCOCC2)c1 (stereo not given)
    . | 0.36
CN1C=C(c2ccc3ccccc3n2)C(c2c[nH]c3ccccc23)c2ccccc21 (stereo not given)
    . | 2.25

The listing, from the first entry:
The line under a structure holds: AID504770 | CapD inh
N#CC1=C(N)Oc2n[nH]c(-c3cccc([N+](=O)[O-])c3)c2C1c1cccc(OC(=O)N2CCOCC2)c1 (stereo not given)
    . | 0.36
CN1C=C(c2ccc3ccccc3n2)C(c2c[nH]c3ccccc23)c2ccccc21 (stereo not given)
    . | 2.25
O=C1C(=O)N(c2nccs2)C(c2ccc(F)cc2)/C1=C(/O)c1ccc(F)cc1 (stereo not given)
    . | -0.63
CC(=O)Oc1cn(OC(C)=O)c2ccc(Br)cc12
    1.6 | -0.775
CS(=O)(=NS(=O)(=O)c1ccc(Cl)s1)c1ccccc1 (stereo not given)
    -0.2 | -0.455
O=C(CSc1nc(C2CC2)nc2ccccc12)N1CCCCC1
    -0.35 | .
O=C(CN1CCOCC1)N1c2ccccc2C=Cc2ccccc21
    . | 0.785
CC1=C(c2ccccc2)S(=O)(=O)NC1=NC1CCCCC1C (stereo not given)
    0.25 | -0.3
Cc1ccc(NC(=O)COc2ccccc2C(N)=O)cc1F
    -0.65 | .
Cc1ccc(N2COc3ccc4c5c(c(=O)oc4c3C2)CCC5)cc1
    1.45 | 18.4
Oc1ccc(-c2ncc(-c3cnc4ccccc4n3)c(-c3ccccc3)n2)cc1
    . | 4.05
CCOC(=O)c1ncn(Cc2ccc(Cl)cc2)c1C
    . | 0.045
CCOC(=O)C1=C(C)NC(=O)NC1c1cn(-c2ccccc2)nc1-c1ccc(OC)c(Br)c1 (stereo not given)
    . | 0.015
COc1ccc2c(c1)c(C(=O)CNc1nccs1)c(C)n2C
    -0.75 | -1.56
COc1cc(OC)nc(Oc2ccccc2-c2nnco2)n1
    . | -0.595
COC(=O)C1=C(N)Oc2cc(C)n(Cc3ccccc3)c(=O)c2C1c1ccncc1 (stereo not given)
    -0.2 | -0.05
FC(F)(F)c1cccc(-c2cnc(SCc3ccccc3Cl)nc2)c1
    . | -0.885
Cc1ccccc1Nc1nnc(SC(C)C(=O)N(C)c2ccccc2)s1 (stereo not given)
    0.25 | .
CC(=O)Nc1ccc(N2C(=O)CC(N3CCCCC3C)C2=O)cc1 (stereo not given)
    -0.3 | .
CC1(C)C(=O)Nc2ccccc2N1C(=O)COC(=O)COc1ccccc1
    -0.75 | .
CCOC(=O)c1cc(CC)sc1NC(=O)C(C)C
    -0.55 | 1.26
NC(=O)Cn1c2ccccc2c2nc3ccccc3nc21
    2.3 | -0.675
CC1=CCC2C(=O)N(c3ccccn3)C(=O)C2C1 (stereo not given)
    0.4 | 1.14
NS(=O)(=O)c1cc(C(=O)OCC(=O)N2CCCCC2)c(Cl)cc1Cl
    0.7 | .
NC(=O)C1CCCCN1Cc1cc(Cl)c2ccccc2c1O (stereo not given)
    0.7 | .
O=c1[nH]cnc2c1cnn2Cc1ccccc1
    0.15 | 0.78
CCC(CC)NC(=O)c1cc2c(C)nn(Cc3ccccc3Cl)c2s1
    0.25 | .
O=C(CCn1nnc(-c2cccs2)n1)NC1CCCCC1
    0.25 | .
Cc1ccc(S(=O)(=O)N(C)CC(=O)Nc2ccc(S(N)(=O)=O)cc2)cc1
    0.35 | -0.885
O=c1oc2cc(O)ccc2cc1-c1nc(-c2ccc(Cl)cc2Cl)cs1
    . | 2.39
COC(CNC(=S)Nc1ccccc1Cl)OC
    -0.6 | -0.125
CC12CCC(C(C)(C)O)(CC1)CC2
    0.9 | -0.695
Brc1ccc(-n2cc(-c3ccccc3)c3c(NCCCN4CCOCC4)ncnc32)cc1
    . | -0.165
CCCC1=C(C(=O)OCC)C(c2cccnc2)n2ncnc2N1 (stereo not given)
    -0.65 | .
COC(=O)c1c(C)nc(C)c(C(=O)OC)c1-c1csc(S(=O)(=O)Nc2ccc(OC)cc2)c1
    0.3 | -0.08
CNS(=O)(=O)c1cccc(C(=O)OCC(=O)C(C)(C)C)c1
    -0.1 | .
N#Cc1ccc(Oc2ccccc2)cc1S(=O)Cc1ccccc1 (stereo not given)
    -0.25 | 0.14
O[C@H](CN1CCC2(CC1)OCCO2)C(F)(F)F
    -0.1 | 0.43
N#CCn1c(-c2cccs2)noc1=O
    -0.65 | .
COC(Cn1c(SCc2ccccc2)nnc1-c1cccc(S(=O)(=O)N(C)C)c1)OC
    -0.15 | .
COc1cc(CN2CCN(CCOC(=O)NNC(=O)c3cccc(O)c3)CC2)cc2c1OCO2
    . | -0.1
Cc1nc(C2CCOC(C)(C)C2)cs1 (stereo not given)
    -0.25 | 0.63
O=C(Nc1n[nH]c(=S)s1)c1ccccc1
    -0.35 | .
CO/C=C1\SC(=S)N(CCc2ccccc2)C1=O
    -0.45 | -1.17
O=C(c1ccc2c(c1)sc1nc(-c3ccc(F)cc3)cn12)N1CCOCC1
    -0.4 | 0.33
C=CCn1c(C)cc(C(=O)CSc2nnc(-c3ccccc3)n2CC)c1C
    -0.5 | .
COc1ccc(Cn2c(=O)sc3ccccc3c2=O)cc1
    2.25 | -1.04
O=c1[nH]cnc2ccsc12
    . | -0.18
CC(=O)c1ccc(S(=O)(=O)NCC(C)(C)CN(C)C)cc1
    . | -0.605
Cc1ccc(C(=O)c2cnc3cc4c(cc3c2N2CCN(C)CC2)OCO4)cc1C
    -0.25 | -2.08
CC(CCc1ccc(O)cc1)NCCc1ccc(O)c(O)c1 (stereo not given)
    . | -0.25
O=C1/C(=C\c2ccc(Br)o2)CC/C1=C/c1ccc(Br)o1
    0.55 | -1.23
Cc1ccc(I)cc1S(=O)(=O)n1nnc2ccccc21
    . | -0.21
O=C(CCC(=O)N1CCOc2ccccc21)N1CCCCC1
    -0.4 | -0.785
Cc1ccc(S(=O)(=O)N2CCCOC2)cc1
    -1.25 | -0.355
Cc1ccc2c(c1)N(CC(=O)NC1CCCCC1C)C(=O)CO2 (stereo not given)
    -0.35 | 3.05
O=S(=O)(Nc1ncccn1)c1ccc(NC(=S)NN2CCOCC2)cc1
    -1.3 | 0.07
N#CSc1ccc(Nc2cc(N3CCOCC3)c3nonc3c2[N+](=O)[O-])cc1
    . | -0.35
COc1cc(Br)cc(/C=C2\Sc3ccccc3C2=O)c1O
    . | -0.305
COc1ccc(C2C3CCC=C3C(C#N)=C(N)C2(C#N)C#N)cc1 (stereo not given)
    0.45 | 1.17

Exported comma-delimited: 2 of the compounds above
canonical_smiles,AID504770,CapD inh
O=C1/C(=C\c2ccc(Br)o2)CC/C1=C/c1ccc(Br)o1,0.55,-1.23
C=CCn1c(C)cc(C(=O)CSc2nnc(-c3ccccc3)n2CC)c1C,-0.5,.

Further entries:
The line under a structure holds: AID504770 | CapD inh
CCOc1cc(C2C(C#N)=C(N)Oc3n[nH]c(-c4ccc5ccccc5c4)c32)ccc1O (stereo not given)
    . | -0.085
NC(=O)c1ccc[n+]([O-])c1
    0.45 | -0.46
COc1ccc(C2CC3(C)CC(=O)C2C(C#N)(C#N)C3(C#N)C#N)cc1 (stereo not given)
    -0.7 | -0.585
CCOC(=O)c1ncn(Cc2ccccc2)c1N
    0.05 | 1.52
O=C(OCC1CCCN(O)C1)N1CCC(O)(c2cccc(C(F)(F)F)c2)CC1 (stereo not given)
    . | -0.46
CC(=O)C1=NN(c2ccccc2C)C2(S1)SC(c1ccc(Cl)cc1)(c1ccc(Cl)cc1)c1ccccc12 (stereo not given)
    . | -0.185
CCCCn1c(=NC(=O)C(C)Oc2ccccc2)c(C(=O)OCC)cc2c(=O)n3ccccc3nc21 (stereo not given)
    . | 0.365
CC/C(=N/NC(=O)C1C2CCCCC21)c1ccc(O)cc1 (stereo not given)
    -0.05 | .
CSc1nc(N)nc(N2CCOCC2)n1
    -0.55 | -0.93
COC(=O)c1cc(-c2ccccc2C(F)(F)F)no1
    -0.3 | 0.115
COc1ccccc1NC(=O)C1CC(=O)N(CCc2ccccc2)C(=Nc2ccccc2)S1 (stereo not given)
    . | 0.015
CCc1cc2cc(C)cc(C)c2nc1SCC(=O)N1CCN(C(=O)c2ccco2)CC1
    0.45 | .
O=c1ccc2c(C(F)(F)F)cc(C(F)(F)F)nc2[nH]1
    -0.4 | 24.1
FC(F)(F)c1cnc2c(c1)Nc1ccccc1S2
    0.25 | -0.34
O=C1CC(c2ccccc2C(F)(F)F)c2ccccc2N1 (stereo not given)
    . | -0.27

An excerpt of these results, with tabs:
Compound	AID504770	CapD inh
O=c1ccc2c(C(F)(F)F)cc(C(F)(F)F)nc2[nH]1	-0.4	24.1
FC(F)(F)c1cnc2c(c1)Nc1ccccc1S2	0.25	-0.34
O=C1CC(c2ccccc2C(F)(F)F)c2ccccc2N1 (stereo not given)	.	-0.27

Next section.
The line under a structure holds: AID504770 | CapD inh
Cc1ccc(CC2SC(=O)NC2=O)o1 (stereo not given)
    1.45 | -0.79
O=C(c1ccc(F)cc1Cl)N1CCN(c2nc(-c3cccs3)ns2)CC1
    0.05 | -0.215
O=C(Nc1cccc(Br)c1)C1CCC1
    0.05 | .
O=C1OC(CO)CN1Cc1ccccc1 (stereo not given)
    -0.6 | 0.27
O=C(Nc1ccc(N2CCOCC2)c(Cl)c1)c1ccccc1Cl
    . | -0.01
O=C(O)CCN1CCCc2ccccc21
    0.2 | 0.22
COc1ccc(/C=C2\SC(=S)N(CC(=O)Nc3ncc(Cc4ccc(C)cc4)s3)C2=O)cc1OC
    . | -0.305
COc1c(Cl)cc(Cl)c(OC)c1C(=O)N1CC(C)OC(C)C1 (stereo not given)
    1.1 | -0.57
CC(=O)Oc1ccccc1C(=O)NC(C)c1ccccc1 (stereo not given)
    0.4 | 46
O=[N+]([O-])c1cccc(C2C=C(c3ccc(Br)cc3)Nc3ncnn32)c1 (stereo not given)
    . | -0.505
COC(=O)c1ccc2c(=O)[nH]c(CSc3nnc(-c4cccs4)n3N)nc2c1
    1.5 | .
Cc1noc2ncnc(SCC(=O)c3ccc(Cl)cc3)c12
    -0.55 | -0.045
CCOC(=O)N1CCC(NC(=O)CCN2C(=O)C3C4C=CC(C4)C3C2=O)CC1 (stereo not given)
    0.1 | -0.72
c1ccc2c(c1)c1ccccc1n2CCOCCN1CCCCC1
    -0.5 | .
CS(=O)(=O)Cc1cc(F)cc2c1OCOC2
    -0.7 | 0.83

Compound profiles, as listed above. Order of values: AID504770 | CapD inh
O=C(CSc1nc(C2CC2)nc2ccccc12)N1CCCCC1 as listed: -0.35 | .
N#CC1=C(N)Oc2n[nH]c(-c3cccc([N+](=O)[O-])c3)c2C1c1cccc(OC(=O)N2CCOCC2)c1 (stereo not given) as listed: . | 0.36

Next part:
The line under a structure holds: AID504770 | CapD inh
CC(=O)C1=C(C)NC(SCC(=O)Nc2ccc(Br)cc2)=C(C#N)C1CC(C)C (stereo not given)
    . | -0.365
N#CC1=C(N)N(c2sc3c(c2C#N)CCCCC3)C2=C(C(=O)CCC2)C1c1cccnc1 (stereo not given)
    . | -0.06
O=C(O)c1cccc2cccc(-c3cccc4cccc(C(=O)O)c34)c12
    . | 1.79
Brc1ccc(C=NC2CCCCC2)cc1
    0.7 | 0.22
Cc1[nH]c2ccc(Cl)cc2c(=O)c1CN1CCCCC1
    0.75 | 0.81
O=c1nc(SCc2ccccc2)nc2ccccn12
    -1.3 | .
Cc1oc2c(CN(C)C)c(O)ccc2c(=O)c1-c1cnn(-c2ccccc2)c1
    0.1 | 33.9
O=C(OCc1cccc(Br)c1)N1CCN(Cc2ccccc2Sc2ccc(Cl)cc2)CC1
    . | 0.125
CC1=C(C(=O)Nc2cccc(C)n2)C(c2cccc(Oc3ccccc3)c2)C2=C(CC(C)(C)CC2=O)N1 (stereo not given)
    . | 43.1
COc1ccc(S(=O)(=O)N2CCCC2)cc1C(=O)O
    2.3 | -1.05
CCOc1ccc(NC(=O)c2sc3ncnc(N4CCN(c5ccccn5)CC4)c3c2C)cc1
    . | -0.49
CSc1sc(C(=O)O)c(I)c1S(=O)(=O)C(C)C
    -1.25 | -0.645
Cc1c(C(=O)N2CCCCC2)sc2nc[nH]c(=O)c12
    -0.8 | -0.415
CCOC(=O)COc1ccc2c(=O)c(-c3ccc(Cl)cc3)c(C(F)(F)F)oc2c1
    . | -0.44
CCOC(=O)CC1C(=O)NCCN1C(=O)c1ccc(Cl)c(Cl)c1 (stereo not given)
    . | -0.15
O=C(CSc1nc2c(c(=O)n1-c1ccc(Br)cc1)SCC2)Nc1nccs1
    . | -1.21
O=S(=O)(c1cc(Cl)c(Cl)cc1Cl)N1CCCC1
    . | 0.69
CCC(C)(C)c1ccc(S(=O)(=O)NCc2ccccc2Cl)cc1
    . | -0.305
CC(=O)Nc1cccc(-c2nnc(SCc3ccccc3)o2)c1
    -0.45 | -0.095
CN(C)C(=O)n1nc2c3c(cccc31)C(=O)c1ccccc1-2
    2.7 | -0.9
CCOC(=O)c1nc(NCc2cccs2)c2ccccc2n1
    -0.6 | -0.32
Cc1ccc(NC(=O)Cc2c(Sc3ccccc3)c3cc(C)ccc3n2C)cc1
    . | -0.105
O=C(c1ccc(Br)o1)n1cnc2ccccc21
    0.65 | 0.465
CCCC1=NNC(=O)C1Cc1c(F)cccc1Cl (stereo not given)
    . | 0.265
NC(=O)c1oc2ccccc2c1NC(=O)Cc1cccc2ccccc12
    -0.7 | 0.51
O=C(O)CN=C1NC2(CCCCC2)Cc2ccccc21
    -0.5 | 0.57
CCC(C)(C)c1ccc(S(=O)(=O)N2CCN(Cc3ccccc3OCc3ccccc3)CC2)cc1
    . | -0.3
Cc1ccc(S(=O)(=O)Nc2cc3c4c(oc3c3ccccc23)CCCC4=O)c(C)c1
    . | 0.215
O=C1c2ccccc2S(=O)c2ccccc2S(=O)(=O)N1Cc1ccccc1 (stereo not given)
    0.65 | -0.63
CCOC(=O)N1CCN(C(=O)CNC(=O)Cn2cnc3ccccc3c2=O)CC1
    0.35 | -0.4
CN1CC(=O)N(c2ccccc2)C1=S
    0.95 | 0.01
CN(C)CCC(=O)NN
    -0.6 | .

Compound activity deposited in PubChem by ICCB-Longwood Screening Facility, Harvard Medical School.
